Sa growth 42C: inhibitors of Staphylococcus aureus growth at 42 °C. 170,000 tested, 0.53% active. relative growth, % (concentration not given with the values). S. aureus RN4220 growth, OD600, 20 h; stronger effect = lower value;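 active means growth at 42 °C up to 50% and 20 or more points under that at 30 °C, or under 10% at both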;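 further: 300 nL library stock went into each well; scaled to the means of positive and negative controls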
GIV Gai3 FP: GIV-Galpha-i interaction inhibition; 210,000 tested, 0.42% active; percent of control (FP), % (no concentration beside the values); P08753; Galpha-i3/FITC-GIV peptide fluorescence polarization, 90 min; stronger effect = lower value; scaled: aluminum fluoride 0%, vehicle 100%;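 active means replicate mean at 85% of control or lower, very high polarization wells dropped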;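 further: wells of about 15 µL received 100 nL stock; the first replicate is given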
Target sequence (P08753 whole entry, looked up): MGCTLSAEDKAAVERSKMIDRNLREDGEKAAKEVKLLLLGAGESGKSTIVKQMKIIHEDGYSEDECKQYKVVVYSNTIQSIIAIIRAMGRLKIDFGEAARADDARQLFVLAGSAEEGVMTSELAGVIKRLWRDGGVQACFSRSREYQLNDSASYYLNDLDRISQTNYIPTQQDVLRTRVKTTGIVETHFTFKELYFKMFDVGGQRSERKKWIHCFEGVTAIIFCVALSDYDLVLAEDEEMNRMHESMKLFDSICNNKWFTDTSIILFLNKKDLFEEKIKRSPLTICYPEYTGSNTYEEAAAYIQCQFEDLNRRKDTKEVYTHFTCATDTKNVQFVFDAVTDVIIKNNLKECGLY
HCMV UL50-53 inh: disrupts HCMV UL50-UL53 complex binding; HTRF UL50-UL53 interaction, normalized percent inhibition; inhibition, % (concentration not given with the values); 190,000 tested, 0.15% active;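 active means both replicates at 50% or more, plus weaker picks with an unusually low signal ratio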;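 further: stock transfer was 100 nL into about 20 µL; 0% = negative control wells and 100% = wells with untagged competitor protein; inactives centre near -12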
Sa growth 42C second temp: recorded beside Sa growth 42C, whose call it bears; relative growth, %; measured here: growth at 30 °C;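 optical density after 20 h as mean of two plates; 100% = untreated growth and lower means inhibition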
* hit, by the source's call; . = no result given; & = joins results of further samples.

SMILES	Sa growth 42C	Sa growth 42C second temp	GIV Gai3 FP	HCMV UL50-53 inh
C=CCN1C(=O)c2ccccc2Sc2ccc(C(=O)NC3CCCCC3C)cc21 (stereo not drawn)	113	97	104	.
CCS(=O)(=O)c1ccc(O)c(NC(=O)CCCC(=O)O)c1	85	83	102	-14
CCn1cc(C(=O)N2CCN(c3ccc(F)cc3)CC2)c(=O)c2cc(S(=O)(=O)N(C)C)ccc21	115	92	107	-6
O=c1oc2ccccc2cc1-c1cn2cc(Cc3ccccc3F)sc2n1	111	94	109	-19
CC(=O)Nc1cc(C(=O)NCc2ccccc2)ccc1Sc1ccc(C)cc1	129	89	103	.
CC(=O)Nc1ccccc1-c1nc2ccccc2s1	112	85	.	12
Cc1cc(C)cc(NC(=O)Nc2ccccc2Sc2ccc3nncn3n2)c1	.	.	101	-14
CC(C)c1nc(C(N)=O)c2[nH]c(=O)n(-c3ccc(Cl)cc3)c2n1	102	90	109	2
Cc1ccc(C(=O)OCC(=O)N2CCOCC2)cc1	92	94	.	-5
Cc1ccc(-c2cc(NC(=O)C(C)Oc3ccc(C)c(C)c3)on2)cc1 (stereo not drawn)	101	91	98	9
O=C(Nc1ccc(Br)c(C(F)(F)F)c1)c1ccc(=O)[nH]c1	92	74	.	-22
O=C(Nc1cnc2ccccn2c1=O)c1ccccc1	86	89	98	.
CC(C)c1ccc2oc(-c3cccc(N)c3)nc2c1	68	68	100	0
CC1CCN(S(=O)(=O)c2ccc3c(c2)oc(=O)n3CC(=O)NC(C)c2ccccc2)CC1 (stereo not drawn)	106	95	100	3
CCN(C(=O)C1CCCN(c2nc(-c3ccc(OC)cc3)no2)C1)c1ccccc1F (stereo not drawn)	103	63	103	.
N#Cc1ccccc1Cn1cc(/C=C2\NC(=O)NC2=O)c2ccccc21	96	81	.	-24
CCC(C)NS(=O)(=O)c1ccc2c(c1)CCN2C(=O)CCC(=O)N1CCOCC1 (stereo not drawn)	.	.	102	-35
CC1CCN(c2ccc(C(=O)N3CCc4ccccc43)nn2)CC1	.	.	101	-2
CC(C)(C)Cc1nc(-c2ccccc2)no1	101	103	102	-17
CC(=O)NCCC(=O)O	82	89	.	-20

3 structures already listed, ordered by SMILES length, ascending.
SMILES	Sa growth 42C	Sa growth 42C second temp	GIV Gai3 FP	HCMV UL50-53 inh
CC(C)c1ccc2oc(-c3cccc(N)c3)nc2c1	68	68	100	0
CCS(=O)(=O)c1ccc(O)c(NC(=O)CCCC(=O)O)c1	85	83	102	-14
CC(=O)Nc1cc(C(=O)NCc2ccccc2)ccc1Sc1ccc(C)cc1	129	89	103	.

Continued.
SMILES	Sa growth 42C	Sa growth 42C second temp	GIV Gai3 FP	HCMV UL50-53 inh
NC(=O)C1CCN(C(=O)c2ccc(NC3=NC4CS(=O)(=O)CC4S3)cc2)CC1 (stereo not drawn)	89	105	109	-4
CCOc1ccccc1CNC(=O)CC1c2ccccc2CCN1S(=O)(=O)c1ccc(F)cc1 (stereo not drawn)	.	.	107	-11
C=CCn1c(=S)[nH]c2scc(-c3ccc(OC)c(OC)c3)c2c1=O	.	.	108	-4
OCC1(CO)CSC(Nc2cc(Cl)cc(Cl)c2)=N1	122	101	103	7
Cc1cn2c(=O)cc(COC(=O)c3cccc(NC(=O)COc4ccccc4Cl)c3)nc2s1	109	90	104	.
CC(=O)c1c(C)oc2ccc(N(C(=O)Oc3ccccc3)S(=O)(=O)c3ccc(C(C)(C)C)cc3)cc12	99	106	109	-8
Cc1ccc(-n2nc3c(c2NC(=O)COc2ccc(Cl)cc2)CSC3)c(C)c1	105	96	102	.
CCN(C(=O)c1cc2c(=O)n(CC)c3ccccc3c2s1)c1cccc(C(F)(F)F)c1	112	95	105	-8
O=C(Oc1ccccc1)c1ccc(F)cc1	116	74	101	-27
O=C(CN1C(=O)C2(SCC(=O)N2c2cccc(Cl)c2)c2ccccc21)NC1CCCCC1 (stereo not drawn)	121	90	110	.

Filtered by structure, the entries above containing a Cl atom (5)
SMILES	Sa growth 42C	Sa growth 42C second temp	GIV Gai3 FP	HCMV UL50-53 inh
CC(C)c1nc(C(N)=O)c2[nH]c(=O)n(-c3ccc(Cl)cc3)c2n1	102	90	109	2
OCC1(CO)CSC(Nc2cc(Cl)cc(Cl)c2)=N1	122	101	103	7
Cc1cn2c(=O)cc(COC(=O)c3cccc(NC(=O)COc4ccccc4Cl)c3)nc2s1	109	90	104	.
Cc1ccc(-n2nc3c(c2NC(=O)COc2ccc(Cl)cc2)CSC3)c(C)c1	105	96	102	.
O=C(CN1C(=O)C2(SCC(=O)N2c2cccc(Cl)c2)c2ccccc21)NC1CCCCC1 (stereo not drawn)	121	90	110	.

(more compounds)
SMILES	Sa growth 42C	Sa growth 42C second temp	GIV Gai3 FP	HCMV UL50-53 inh
CCOC(=O)Cc1ccc(NC(=O)Nc2nnc(N(C)Cc3ccccc3)s2)cc1	.	.	111	4
Cc1ccc(-n2nc3c(c2NC(=O)c2ccc(S(=O)(=O)N4CCCCC4)cc2)CSC3)cc1	.	.	104	-11
CC(C)CCNC(=O)c1cnc2sc(N3CCCCCC3)nn2c1=O	114	93	106	.
CCN(CC)C(=O)/C=C/c1cn(-c2ccccc2)nc1-c1ccccc1	111	90	.	-21
Cc1cc(-c2ccc(C)c(S(=O)(=O)N3c4ccccc4CC3C)c2)on1 (stereo not drawn)	121	86	101	.
CC1(C)CC(=O)C2=C(C1)OC1=C(C(=O)CC(C)(C)C1)C2c1ccc(O)c([N+](=O)[O-])c1	.	.	101	-12
Cc1ccc(-c2csc(-c3cc(C)on3)n2)cc1	105	76	104	0
Cc1cccc(-c2c3c(=O)n(C)c(=O)n(C)c3c3n2CCOC3c2coc3ccccc3c2=O)c1 (stereo not drawn)	.	.	97	10
COc1ccc(C2C(=O)c3cc(OC)c(OC)cc3C2c2ccccc2)cc1OC (stereo not drawn)	95	87	100	.
O=c1oc(-c2ccccc2)nc2scc(-c3ccccc3)c12	99	126	.	8
COc1ccccc1NC(=O)/C=C1\SCC(=O)N1C	103	100	.	-3
COc1ccc(/C=C(/C#N)S(=O)(=O)c2ccccc2)cc1Cn1nc(C)cc1C	106	94	112	-11
CN(C(=O)COC(=O)c1ccc2c(=O)n3c(nc2c1)CCC3)c1ccccc1	99	91	.	-28
O=C(CSc1nc2c([nH]c3ccccc32)c(=O)n1-c1cccc(C(F)(F)F)c1)N1CCCC1	102	87	97	.
COc1ccc(OC)c(NS(=O)(=O)c2ccc(OC)c(-c3noc(C4CCCCC4)n3)c2)c1	.	.	107	-8
O=C(Nc1ccccc1)c1ccc2c(c1)CCO2	104	86	100	-17
CCOC(=O)c1c(C)oc2nc(C)nc(Nc3cccc(OC)c3)c12	99	92	109	.
O=C(CSc1nc2ccccc2n1Cc1cccc(C(F)(F)F)c1)NCc1ccccc1	121	101	104	.
CN(C)C(=O)N1CCCC(C(=O)NCc2ccccc2)C1 (stereo not drawn)	100	84	102	.
COc1ccc(OC)c(N2CC(C(=O)O)CC2=O)c1 (stereo not drawn)	.	.	100	-31

4 of the compounds above, bar-delimited.
SMILES | Sa growth 42C | Sa growth 42C second temp | GIV Gai3 FP | HCMV UL50-53 inh
COc1ccc(OC)c(NS(=O)(=O)c2ccc(OC)c(-c3noc(C4CCCCC4)n3)c2)c1 | . | . | 107 | -8
O=C(Nc1ccccc1)c1ccc2c(c1)CCO2 | 104 | 86 | 100 | -17
CCOC(=O)c1c(C)oc2nc(C)nc(Nc3cccc(OC)c3)c12 | 99 | 92 | 109 | .
O=C(CSc1nc2ccccc2n1Cc1cccc(C(F)(F)F)c1)NCc1ccccc1 | 121 | 101 | 104 | .

(continued)
SMILES	Sa growth 42C	Sa growth 42C second temp	GIV Gai3 FP	HCMV UL50-53 inh
Cc1ccc(CSc2cn(CC(=O)N3CCCC3)c3ccccc23)cc1	105	121	107	.
COc1ccc(S(=O)(=O)NCc2ccc(C(=O)N3CCN(c4ccccn4)CC3)cc2)cc1	.	.	103	6
COc1ccc(Cl)cc1Nc1nc2nonc2nc1Nc1cc(Cl)ccc1OC	.	.	95	-23
CCOc1ccc2nc(N3CCC(C(=O)NCc4ccccc4)CC3)sc2c1	.	.	98	-31
Cc1ccc(-n2c(SCC(=O)C(C)(C)C)nc3ccccc3c2=O)cc1	109	99	107	-3
O=C(COC(=O)C1CC1)Nc1ccccc1	115	85	.	-7
O=C(Nc1sc2c(c1C(=O)Nc1ccccc1)CCC2)c1ccc(Br)cc1	100	101	104	9
CCOC(=O)c1oc2nc(-c3ccco3)cc(-c3ccco3)c2c1N	90	87	97	-43
CC(=O)Oc1ccc2nc(-c3cccs3)oc(=O)c2c1	94	91	105	-5
COc1ccc(CC(=O)Nc2cc(C)c3c(=O)oc4ccccc4c3n2)cc1	102	97	105	-8
O=C1C(=O)N(C2CCN(C(=O)c3ccc4c(c3)OCO4)CC2)CCN1Cc1ccc(F)cc1	.	.	97	-16
Cc1[nH]c(-c2ccc3c(c2)OCO3)nc1C(=O)O	99	101	96	.
CCOC(=O)c1c[nH]c2ccc(C)cc2c1=O	88	79	95&108	-8&-10
CC(=O)Nc1ccccc1-c1nc2ccccc2n(Cc2cccc(Br)c2)c1=O	118	96	101&97	1&-22
CCOC(=O)c1c(C#N)c(SCC(=O)Nc2ccc(OC)cc2)nc2c1CN(CC)CC2	115	81	118	-29
Cn1ccc2cc(S(=O)(=O)N3CCC(C(=O)NC4CCN(Cc5ccccc5)CC4)CC3)ccc21	.	.	110	-9
O=C(c1cccnc1Oc1ccccc1)N1CCOCC1	109	83	101	.
COc1ccc(Nc2nc(OC)nc(OC)n2)cc1	72	97	105	12
COc1ccc(CN2C(=O)c3c(-n4cccc4)c4cc(C)ccc4n3CC2(C)C(=O)NC2CCC(C)CC2)cc1 (stereo not drawn)	.	.	112	12
CC1(C)Cc2nc3c(cc2CO1)c(=O)n(-c1ccccc1)c(=O)n3CC(=O)Nc1ccccc1	.	.	99	-11
COC(=O)c1ccccc1NC(=O)Cn1sc2ccccc2c1=O	95	93	.	-12
N=C(N)SCC(=O)Nc1ccccc1	86	102	97	1
CC(C)(C)c1cn2c3ccccc3n(N)c2n1	80	87	105	.
Cc1nn(C)c(C)c1S(=O)(=O)N1CCC(C(=O)NC2CCCCCC2)CC1	123	85	101	.
COc1ccc(CCN2C(=O)CC(C(=O)Nc3ccc(C(=O)O)cc3)SC2=Nc2ccccc2)cc1OC (stereo not drawn)	.	.	102	-20
O=C1C=C(Nc2ccccc2)CO1	110	83	97	-8
COc1ccc(-n2c(=O)c3c4c(sc3n3c(C)nnc23)COC(C(C)C)C4)cc1 (stereo not drawn)	99	93	105	11
O=C(CSc1nnc2c(n1)[nH]c1ccccc12)c1ccccc1	86	87	.	-18
COc1ccc(-c2nc(SCC(=O)Nc3cccc(C(C)=O)c3)n[nH]2)cc1	103	101	107	.
CC1(C)Cc2ccccc2-c2c1c(=O)n(Cc1ccccc1)c1n[nH]c(=S)n21	73	31	102	.
COc1ccc(C)cc1NC(=O)Cn1cc(S(=O)(=O)Cc2ccccc2Cl)c2ccccc21	125	90	103	.
O=C1CCCC2=C1C(c1ccccc1)C1=C(CCCC1=O)O2	78	86	96	-20
CCC1CCCCN1C(=O)c1sc2nc(C)cc(C)c2c1N (stereo not drawn)	106	81	97	-15
CC(Oc1ccc(F)cc1)c1n[nH]c(=S)o1 (stereo not drawn)	93	85	.	-7
COC(=O)/C=C1\SCC(=O)N1CC(=O)NCCc1ccc(OC)c(OC)c1	101	91	.	-16
O=C(c1ccc(Cl)cc1)N1CCN(CCc2ccncc2)CC1	89	100	107&101	10&5
Cc1ccc(OC(=O)C(C)(C)C)cc1C	103	93	105	-11
CC1=C(c2ccc(C)cc2)S(=O)(=O)NC1=NCC(=O)O	95	84	103	-36
N#CC1=C(N)OC(c2ccco2)=C(C#N)C1c1ccco1 (stereo not drawn)	82	70	122	-22
CCN(Cc1ccc(OC)cc1OC)C(=O)c1cnc(OC)cc1C(F)(F)F	111	97	105	-4

Structural class: the compounds so far containing a CF3 group
SMILES	Sa growth 42C	Sa growth 42C second temp	GIV Gai3 FP	HCMV UL50-53 inh
O=C(Nc1ccc(Br)c(C(F)(F)F)c1)c1ccc(=O)[nH]c1	92	74	.	-22
CCN(C(=O)c1cc2c(=O)n(CC)c3ccccc3c2s1)c1cccc(C(F)(F)F)c1	112	95	105	-8
O=C(CSc1nc2c([nH]c3ccccc32)c(=O)n1-c1cccc(C(F)(F)F)c1)N1CCCC1	102	87	97	.
O=C(CSc1nc2ccccc2n1Cc1cccc(C(F)(F)F)c1)NCc1ccccc1	121	101	104	.
CCN(Cc1ccc(OC)cc1OC)C(=O)c1cnc(OC)cc1C(F)(F)F	111	97	105	-4

Continuation:
SMILES	Sa growth 42C	Sa growth 42C second temp	GIV Gai3 FP	HCMV UL50-53 inh
COc1ccc(OC)c(CNC(=O)CCC(=O)N2Cc3ccccc3Oc3ncccc32)c1	108	105	107	.
CCOC(=O)c1sc2nc(C)nc(N3CCc4ccccc4C3)c2c1C	.	.	108	11
COc1ccc(C(=O)Nc2ccc3c(c2)CCCN3S(=O)(=O)c2ccc(C)cc2)cc1	104	92	102	.
O=C(Oc1ccc(-c2csnn2)cc1)c1cccs1	98	68	98	-2
CC(C)OC(=O)c1c(NC(=O)C2c3ccccc3Oc3ccccc32)sc2c1CCCC2	103	95	106	-37
CN(C(=O)CSc1cn(CC(=O)N2CCCC2)c2ccccc12)c1ccccc1	120	84	110	.
COC(=O)CNC(=O)c1ccccc1C	103	94	.	4
CCc1ccc(NS(C)(=O)=O)cc1	90	102	.	6

High-throughput results from PubChem.
